Mtb growth – M. tuberculosis H37Rv growth inhibitors, H37Rv strain (AID 1626). M. tuberculosis H37Rv growth inhibition; higher % means a stronger effect. one-dose inhibition, % at 10 µM; IC50 in µM for titrated hits. 0.95% of 220,000 active;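 active = confirmed in a dose series; inconclusive = inhibition above 80% but not taken into the dose series; inactive = below 80% or under 30% at every dose of the series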;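 note: bacteria incubated seven days before Alamar blue readout; 0% = bacteria only wells and 100% = bacteria with antibiotic wells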
RecA splice inh – blocks M. tuberculosis RecA intein splicing. P9WHJ3. cell-free RecA intein splicing, fluorescence. inhibition, %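 (about 9 µM by stock and volumes)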. 0.75% of 290,000 active; in the data active = inhibition above about 30%; inconclusive = no clear call, values can overlap the other calls;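 note: 0% = vehicle wells and 100% = reference inhibitor control wells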
Target sequence (P9WHJ3 whole entry, looked up, canonical isoform): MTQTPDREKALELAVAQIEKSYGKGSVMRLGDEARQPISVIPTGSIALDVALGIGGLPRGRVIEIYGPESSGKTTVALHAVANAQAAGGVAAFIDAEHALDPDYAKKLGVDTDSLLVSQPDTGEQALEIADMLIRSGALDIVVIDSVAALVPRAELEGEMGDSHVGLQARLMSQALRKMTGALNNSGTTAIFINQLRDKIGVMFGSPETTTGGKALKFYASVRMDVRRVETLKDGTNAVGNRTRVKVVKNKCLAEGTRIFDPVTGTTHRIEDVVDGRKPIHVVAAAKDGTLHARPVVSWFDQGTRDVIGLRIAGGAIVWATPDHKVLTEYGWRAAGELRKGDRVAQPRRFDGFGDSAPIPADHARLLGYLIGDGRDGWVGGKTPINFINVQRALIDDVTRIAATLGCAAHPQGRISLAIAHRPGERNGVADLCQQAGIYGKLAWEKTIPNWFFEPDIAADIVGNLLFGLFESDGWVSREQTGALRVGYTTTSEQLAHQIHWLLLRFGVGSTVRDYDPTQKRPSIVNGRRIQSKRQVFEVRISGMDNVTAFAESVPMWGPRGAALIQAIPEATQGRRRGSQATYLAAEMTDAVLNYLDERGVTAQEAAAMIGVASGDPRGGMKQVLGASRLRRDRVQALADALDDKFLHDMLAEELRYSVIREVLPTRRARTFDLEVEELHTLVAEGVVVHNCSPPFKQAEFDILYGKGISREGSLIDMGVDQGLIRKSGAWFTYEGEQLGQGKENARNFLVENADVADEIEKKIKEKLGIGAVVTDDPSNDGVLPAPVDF
YopH inh – inhibitors of Yersinia enterocolitica YopH tyrosine phosphatase; 0.16% of 140,000 active; inhibition, %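 (about 10 µM by stock and volumes)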; fluorescence Ex485/Em525;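 active = inhibition of 50% or more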;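 note: controls were vehicle for no effect and minimum signal wells for full effect; inactives centre near -20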
Mtb betalactam – beta-lactam sensitization of Mtb H37Rv; 0.27% of 330,000 active; AID 434955; M. tuberculosis H37Rv growth with meropenem, percent inhibition; hits of this screen are not shown here; inhibition, % at 25 µM;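 active = about 74% or more and at least 40 points above the plate without the antibiotic, then above 30% in a dose series; inconclusive = first-round hits that could not be retested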;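 note: growth measured after seven days incubation then overnight dye step; 0% = bacteria only wells and 100% = bacteria with antibiotic; twin plates without the antibiotic show which effects depend on it; some results filed as inactive read as strong as hits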
Arbovirus inh – blocks arbovirus infection. arbovirus infection cell-based antiviral screen. inhibition, % at 10 µM. 0.37% of 200,000 active. AID 1251;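 active = inhibition from about 30%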;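 note: bluetongue infection of BSR cells; cell survival read as ATP light after 72 h; 0% = infected wells without compound and 100% = uninfected wells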
Arbovirus inh repeat – second read-out of Arbovirus inh, no call of its own (marks repeat the call); inhibition, %; measured here: 10K subset replicate screen; many hits read low in the repeat;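 first of two repeat runs on a subset; 0% = infected and 100% = uninfected wells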
* = called active by the depositor; ? = inconclusive; nt = not tested or not shown.

SMILES	Mtb growth	RecA splice inh	YopH inh	Mtb betalactam	Arbovirus inh	others
COc1ccc(NC(=O)CSc2nc(C)cc(C)n2)cc1	-2%	-2.4	-14	-10	14
O=C(O)CCC(NS(=O)(=O)c1ccc(-c2ccccc2)cc1)C(=O)O (centres undefined)	-10%	1.2	-10	-11	-1
CCOC(=O)N1CCC2(CC1)C(C#N)=C(N)Oc1c2c(C)nn1-c1cccc(Cl)c1	-3%	63*	1	2	-8
C/C(=N/NC(=O)CNC(=O)c1ccccn1)c1ccccc1	-6%	0.1	-23	-1	11
COc1cc(CCC(=O)Nc2cccc(C(F)(F)F)c2)cc(OC)c1OC	3%	0.4	-16	-4	16
O=C(CCNS(=O)(=O)c1ccc(Cl)cc1)Nc1ccncc1	nt	-0.3	nt	5	nt
CN(C)CCCN(C(=O)c1ccc2c(c1)OCCO2)c1nc2cc3c(cc2s1)OCO3	nt	1.1	nt	17	nt
Cc1cc(SCC(=O)NCC2CCCO2)nc2ccccc12 (centres undefined)	nt	-3.0	nt	-10	nt
O=C(NCc1cccnc1)c1cccc(S(=O)(=O)N2CCCC2)c1	nt	0.4	nt	-8	nt
O=C(CSc1ccc(Cl)cc1)NC1=NN(c2ccccc2)C(=O)C1	nt	16	nt	?	nt
Cc1cccc(C(=O)N[C@H](C(=O)OCc2cc(=O)n3c(n2)sc2ccccc23)C(C)C)c1	11%	5.1	-11	-4	10
COCc1cccc(C(=O)NC(c2ccccc2)c2ccccc2)c1	nt	-1.1	nt	-3	nt
COc1ccc(Br)cc1CN(C)C(=O)c1ccccc1OCc1c(C)noc1C	nt	2.1	nt	2	nt
CCOC(=O)N1CCN(S(=O)(=O)c2ccc(OCC(=O)OC)c(C)c2)CC1	-11%	-0.3	-12	-7	3
CCCn1cc(CN2CCC(Cc3ccccc3)(C(=O)OCC)CC2)c(C)n1	3%	-0.9	nt	-9	-3

By substructure, the entries above containing four or more nitrogen atoms
SMILES	Mtb growth	RecA splice inh	YopH inh	Mtb betalactam	Arbovirus inh	others
CCOC(=O)N1CCC2(CC1)C(C#N)=C(N)Oc1c2c(C)nn1-c1cccc(Cl)c1	-3%	63*	1	2	-8
C/C(=N/NC(=O)CNC(=O)c1ccccn1)c1ccccc1	-6%	0.1	-23	-1	11

(next part)
SMILES	Mtb growth	RecA splice inh	YopH inh	Mtb betalactam	Arbovirus inh	others
CCCCN(CCCC)c1nc(-c2ccncc2)nc2ccccc12	?	3.0	nt	88	nt
COc1cc(NC(=O)c2ccco2)c(C(=O)O)cc1OC	-3%	1.4	-34	5	16
CN1CCN(C(=S)NC(=O)/C=C/c2cccs2)CC1	-4%	-2.7	nt	-10	nt
Cc1cc(C)nc(NS(=O)(=O)c2ccc(NC(=S)NC(=O)CC(C)C)cc2)n1	nt	-1.4	-35	-8	2
COc1cccc(N(CC(=O)NCCSc2ccccn2)S(=O)(=O)c2ccccc2)c1	nt	0.9	nt	-2	nt
CN1CCN(S(=O)(=O)c2cccc(C(=O)Nc3ccccc3N3CCCC3)c2)CC1	nt	-0.5	nt	-5	nt
O=C(O)CC1(CC(=O)Nc2ccccc2C(=O)c2ccccc2)CCCC1	3%	0.0	nt	-3	-1
O=S(=O)(NOCc1ccc(Cl)cc1)c1ccc(Cl)cc1	nt	2.9	nt	6	nt
O=C(CSc1ncnc2sc3c(c12)CCC3)N1CCOCC1	nt	6.3	nt	-10	nt
Cc1ccc(C2(C)NC(=O)N(CC(=O)NC(=O)NC(C)(C)C)C2=O)cc1 (centres undefined)	nt	-0.3	nt	-8	nt
CCCOc1ccc(S(=O)(=O)n2cc(Br)c(=O)[nH]c2=O)cc1	-12%	3.3	-2	8	9
CC1=C(C(=O)OC(C)(C)C)C(c2cccc3ccccc23)NC(=O)N1 (centres undefined)	nt	0.1	nt	?	nt
c1ccc2[nH]cnc2c1	-5%	2.8	nt	1	nt
Cc1noc(COc2ccc(OCc3nc(C)no3)cc2)n1	4%	0.3	-59	-8	-5
C=CCN1CC(O)=C(c2ccccc2)C1=N	-1%	-0.3	-12	0	0

Compounds above with a COOH group (three):
SMILES	Mtb growth	RecA splice inh	YopH inh	Mtb betalactam	Arbovirus inh	others
O=C(O)CCC(NS(=O)(=O)c1ccc(-c2ccccc2)cc1)C(=O)O (centres undefined)	-10%	1.2	-10	-11	-1
COc1cc(NC(=O)c2ccco2)c(C(=O)O)cc1OC	-3%	1.4	-34	5	16
O=C(O)CC1(CC(=O)Nc2ccccc2C(=O)c2ccccc2)CCCC1	3%	0.0	nt	-3	-1

Remaining list, next part.
SMILES	Mtb growth	RecA splice inh	YopH inh	Mtb betalactam	Arbovirus inh	others
CCN(CC(=O)Nc1ccc2c(c1)OCCO2)c1nc(-c2cccnc2)nc2ccccc12	-5%	4.0	-27	0	0
NC(=O)c1ccc(NC(=O)COC(=O)/C=C/c2cccs2)cc1	-2%	2.4	nt	-4	1
O=C(/C=C/c1ccc([N+](=O)[O-])cc1)NCc1cccnc1	nt	-3.1	-52	-9	5
CCC(C(=O)NCc1ccco1)N(C(=O)CNS(=O)(=O)c1ccc(C)cc1)c1ccccc1F (centres undefined)	nt	0.6	nt	4	nt
Cc1ccc(-n2ncc3c(NCc4ccco4)ncnc32)c(C)c1	8%	nt	-40	-1	-7	Arbovirus inh repeat=-10
c1ccc(-c2cn3c(n2)CCc2ccc4cccnc4c2-3)cc1	?	5.1	-2	95	-17
O=c1c(-c2ccco2)[n+]([O-])c2ccccc2n1OCc1ccccc1F	-1%	-1.7	-16	1	-5
CCOC(=O)CSC(CC)C(=O)Nc1nnc(CC)s1 (centres undefined)	8%	-0.7	-43	-4	-4	Arbovirus inh repeat=0
COc1ccc(CN2CCN(c3ccccc3OC)CC2)c(OC)c1	nt	-0.9	nt	6	nt
CCOc1ccc(Oc2c(/C=N/NC(C)=O)c(C)nn2-c2ccccc2)cc1	9%	2.1	-26	8	-6
Cc1ccc(NC(=S)N2CCCC(O)C2)cc1 (centres undefined)	0%	0.4	nt	-4	5
COc1ccccc1/C=N/n1c(N)c(S(=O)(=O)c2cccs2)c2nc3ccccc3nc21	-10%	-2.8	-21	3	1
c1ccc(-c2nnc(-c3ccccn3)nc2NC2CCCCC2)cc1	?	38*	-1	82	-37
O=C(Nc1cccc(OC(=O)c2ccco2)c1)c1ccco1	4%	33*	-24	91	16
Cn1c(SCC(=O)N=Nc2c(O)[nH]c3ccccc23)nc2ccccc21	-9%	1.4	-26	-10	-11
CN(CCC(=O)Nc1ccc(Br)cc1)Cc1ccccc1	-3%	2.7	-14	-12	-19
Cc1ccccc1OCC(=O)Nc1ccccc1C(=O)N1CCCCC1	nt	4.4	nt	5	nt
CCOc1ccc(OCC)c(NC(=O)CSc2nc3c(c(=O)n(C)c(=O)n3C)n2C(C)C)c1	1%	2.3	-22	2	1
Cc1ccc(OCC(=O)NCCNC(=O)c2ccco2)cc1C	nt	4.2	nt	3	nt
NC(=S)N=Nc1ccc(NN=C(N)N)cc1	nt	-0.4	nt	89	nt
CCCSc1nnc(NC(=O)Nc2ccc(F)cc2)s1	17%	-5.4	-5	-5	-16
Cc1nc(S(=O)(=O)Cc2ccccc2)nc2c1CCC2	-5%	0.5	nt	0	-1
Cc1ccc(OCCC(=O)OCC(=O)NNC(=O)c2ccccc2)cc1	nt	-0.1	nt	-5	nt
Cc1nnc(SCC2=C(C(=O)O)N3C(=O)C(NC(=O)Cn4ncc(Cl)c4C)C3SC2)s1 (centres undefined)	-8%	1.9	nt	11	6
CC(=O)Nc1cc2c(cc1C(=O)c1ccccc1)OCCO2	nt	1.6	-44	-3	0	Arbovirus inh repeat=2
COc1ccc(C=O)cc1COc1ccc(F)cc1F	38%	1.5	3	60	-1
Cc1ccc(NC(=O)c2oc3ccc(S(=O)(=O)N4CCOCC4)cc3c2C)cc1C	10%	-1.1	0	1	-14
CCOC(=O)C1=C(CSc2nc3ccccc3s2)NC(=O)NC1c1cccc([N+](=O)[O-])c1 (centres undefined)	2%	-0.1	-22	1	-1
Cc1cccc(-n2c(CCCN3C(=O)c4ccccc4C3=O)nc3ccccc3c2=O)n1	nt	nt	-41	nt	-2
Cc1nc2ccccc2nc1N1CCC(C)CC1	-7%	0.9	-117	-6	1
O=C(O)c1nn2c(C(F)(F)F)cc(-c3cccs3)nc2c1Cl	2%	3.2	-12	3	-7
Cc1ccc(S(=O)(=O)N2CCCC2C(=O)Nc2nc3c(s2)CCCC3)cc1 (centres undefined)	3%	4.2	-17	-4	3
COc1ccc(O)c(C(=O)c2cc(SCC(=O)O)c3nc4sc5c(c4c(=O)n3c2)CCCC5)c1	-10%	1.4	nt	-3	nt
Nc1[nH]ncc1-c1ccc(Cl)cc1	22µM*	0.0	nt	95	-12
O=C(c1ccco1)N1CCN(C(=O)c2ccccc2OCc2ccc(Cl)cc2)CC1	nt	1.6	nt	-1	nt
CC(C)CCN1CN(S(=O)(=O)c2cccs2)c2nc3ccccc3nc21	9%	-0.8	1	-9	2
CCN(Cc1ccccc1)C(=O)CSc1nc(C)cc2c1C(=O)OC2	5%	-1.0	-41	0	0
CCOC(=O)CSC(CC)C(=O)Nc1nnc(C(C)C)s1 (centres undefined)	2%	1.8	-17	2	8	Arbovirus inh repeat=-1
CC(C)[C@H](NC(=O)c1cccc(S(=O)(=O)N2CCOCC2)c1)C(=O)Nc1nccs1	3%	0.8	nt	-5	5
Cc1ccc(NC(=O)NCCN2CCN(C(=O)Nc3ccc(C)cc3)CC2)cc1	nt	-3.1	nt	8	nt
O=C(/C=C/c1ccccc1Cl)N(Cc1ccccc1)C1CCS(=O)(=O)C1 (centres undefined)	4%	-3.3	-10	-3	-5
O=C(CCc1nc2ccccc2c(=O)[nH]1)Nc1cccc(S(=O)(=O)N2CCOCC2)c1	nt	1.2	nt	0	nt
CCOC(=O)N1CCN(CC(=O)Nc2ccc(OC)cc2)CC1	-10%	-1.9	11	-8	9
COc1cc(C(=O)Nc2nnc(C(F)(F)F)s2)c([N+](=O)[O-])cc1OC	1%	1.1	nt	2	8
CN(C(=O)c1ccncc1)c1ccccc1	-8%	-1.5	nt	4	nt
Cc1cccc(NC(=O)c2ccc3nccnc3c2)n1	nt	0.5	nt	4	nt
Nc1ccn(-c2ncc(C(F)(F)F)cc2Cl)c(=O)n1	-3%	-1.2	nt	-7	-2
Cc1cccc(C)c1OCc1n[nH]c(=S)o1	6%	0.2	-25	-9	2
COCCNC(=S)NCc1ccc2[nH]c3c(c2c1)CCCC3	-2%	-47	nt	-3	9
CC(C)NC(=O)CSc1nc2sccc2c(=O)n1-c1ccccc1	nt	1.6	nt	2	nt
O=C(NCc1ccc(Cl)cc1)c1cc([N+](=O)[O-])ccc1Cl	3%	0.4	nt	0	6
Cn1nccc1NC(=O)COCC(=O)O	-3%	0.2	nt	-2	nt
COc1ccc(C(=O)NCc2ccc(-n3cccc3)cc2)cc1OC	0%	-1.3	nt	-8	-3
CCOC(=O)C(CC)n1cnc2c(nnn2-c2ccc(C)cc2)c1=O (centres undefined)	-8%	4.0	7	-7	5
COC(=O)C1=C(Nc2ccccc2NS(=O)(=O)c2ccc(C(F)(F)F)cc2Cl)CSC1	2%	-2.3	nt	5	nt
Cn1nnnc1SCC(=O)Nc1ccc2c(c1)OCCO2	-5%	12	nt	-3	4
O=C(O)c1ccc(N/N=C/c2c(F)cccc2Cl)cc1	nt	-1.2	nt	21	nt
O=C(Nc1csc(Cl)c1)c1ccccc1	nt	0.5	nt	-7	nt
CCOc1ccc(N2CC(C(=O)NCCc3ccc(F)cc3)CC2=O)cc1 (centres undefined)	nt	1.1	nt	-3	nt
CCn1nc([N+](=O)[O-])c(C(C#N)c2nc3ccccc3n2C)c(Cl)c1=O (centres undefined)	-10%	1.9	2	1	21

4 neighbouring records from above:
SMILES	Mtb growth	RecA splice inh	YopH inh	Mtb betalactam	Arbovirus inh	others
O=C(O)c1ccc(N/N=C/c2c(F)cccc2Cl)cc1	nt	-1.2	nt	21	nt
O=C(Nc1csc(Cl)c1)c1ccccc1	nt	0.5	nt	-7	nt
CCOc1ccc(N2CC(C(=O)NCCc3ccc(F)cc3)CC2=O)cc1 (centres undefined)	nt	1.1	nt	-3	nt
CCn1nc([N+](=O)[O-])c(C(C#N)c2nc3ccccc3n2C)c(Cl)c1=O (centres undefined)	-10%	1.9	2	1	21

Remaining list, next part:
SMILES	Mtb growth	RecA splice inh	YopH inh	Mtb betalactam	Arbovirus inh	others
O=C(N/N=C/c1cc([N+](=O)[O-])ccc1O)c1ccc2c(c1)OCCO2	1%	-12	-23	69	-14
Cc1ccc(C)c(NC(=O)CN(C)C(=O)COc2ncnc3sccc23)c1	-6%	-1.4	-15	8	-1
Cc1ccc(O)c(C(=O)c2cc(C#N)c(=O)n(Cc3ccccc3)c2)c1	1%	-4.5	nt	-4	1
O=C1NC2c3ccccc3C(=O)N2c2c1cnn2-c1ccccc1 (centres undefined)	-7%	0.6	-30	2	-2
COc1ccc(C2CC(=O)N(CC(=O)NCC3CCCO3)c3ccccc3S2)cc1OC (centres undefined)	1%	6.3	nt	7	1

Compound activity as filed in PubChem BioAssay.

A portion of the library (hit frequency here may not be typical).
